Mtb bLac sens = beta-lactam sensitization of Mtb H37Rv. M. tuberculosis H37Rv growth with meropenem, percent inhibition; hits of this screen are not shown here. inhibition, % at 25 µM. actives 0.27% (n = 330,000). AID 434955;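 active = about 74% or more and at least 40 points above the plate without the antibiotic, then above 30% in a dose series; inconclusive = first-round hits that could not be retested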;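 note: growth measured after seven days incubation then overnight dye step; 0% = bacteria only wells and 100% = bacteria with antibiotic; twin plates without the antibiotic show which effects depend on it; some results filed as inactive read as strong as hits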
YopH inh = YopH (Yersinia) phosphatase inhibition. actives 0.16% (n = 140,000). AID 898. inhibition, %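 (about 10 µM by stock and volumes)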. fluorescence Ex485/Em525;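 active = inhibition of 50% or more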;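 note: controls were vehicle for no effect and minimum signal wells for full effect; inactives centre near -20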
Arbovirus anti = blocks arbovirus infection | inhibition, % at 10 µM | actives 0.37% (n = 200,000) | arbovirus infection cell-based antiviral screen;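 active = inhibition from about 30%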;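 note: bluetongue infection of BSR cells; cell survival read as ATP light after 72 h; 0% = infected wells without compound and 100% = uninfected wells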
Mtb growth = M. tuberculosis H37Rv growth inhibitors, H37Rv strain (AID 1626). inhibition, % at 10 µM, or IC50 in µM where a hit was titrated. M. tuberculosis H37Rv growth inhibition; higher % means a stronger effect. actives 0.95% (n = 220,000);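 active = confirmed in a dose series; inconclusive = inhibition above 80% but not taken into the dose series; inactive = below 80% or under 30% at every dose of the series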;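 note: bacteria incubated seven days before Alamar blue readout; 0% = bacteria only wells and 100% = bacteria with antibiotic wells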
RecA splice inh = Mtb RecA intein splicing inhibition | cell-free RecA intein splicing, fluorescence | inhibition, %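 (about 9 µM by stock and volumes)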 | actives 0.75% (n = 290,000); in the data active = inhibition above about 30%; inconclusive = no clear call, values can overlap the other calls;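 note: 0% = vehicle wells and 100% = reference inhibitor control wells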
Target sequence (P9WHJ3 whole entry, looked up, canonical isoform): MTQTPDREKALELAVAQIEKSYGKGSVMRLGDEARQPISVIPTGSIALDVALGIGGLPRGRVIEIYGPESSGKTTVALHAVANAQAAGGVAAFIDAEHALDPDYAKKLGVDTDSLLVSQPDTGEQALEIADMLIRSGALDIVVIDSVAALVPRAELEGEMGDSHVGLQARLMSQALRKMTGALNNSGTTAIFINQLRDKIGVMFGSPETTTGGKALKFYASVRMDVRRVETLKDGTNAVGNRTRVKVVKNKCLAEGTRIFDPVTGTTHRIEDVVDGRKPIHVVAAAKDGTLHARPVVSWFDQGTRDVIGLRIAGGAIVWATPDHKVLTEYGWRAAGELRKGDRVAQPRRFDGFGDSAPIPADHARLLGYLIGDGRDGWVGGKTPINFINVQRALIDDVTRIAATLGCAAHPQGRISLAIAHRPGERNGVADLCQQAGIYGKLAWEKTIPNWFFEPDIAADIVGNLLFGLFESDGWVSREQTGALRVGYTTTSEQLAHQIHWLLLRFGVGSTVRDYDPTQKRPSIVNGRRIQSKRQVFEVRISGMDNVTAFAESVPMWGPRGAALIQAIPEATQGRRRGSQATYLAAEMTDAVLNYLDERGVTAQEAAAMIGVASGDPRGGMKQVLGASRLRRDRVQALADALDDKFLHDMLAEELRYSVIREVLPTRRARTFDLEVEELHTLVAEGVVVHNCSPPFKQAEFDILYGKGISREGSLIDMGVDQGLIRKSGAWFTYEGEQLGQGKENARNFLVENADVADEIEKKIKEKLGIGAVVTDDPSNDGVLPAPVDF
Arbovirus anti repeat = also measured in Arbovirus anti; calls as there; inhibition, %; measured here: 10K subset replicate screen; many hits read low in the repeat;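 first of two repeat runs on a subset; 0% = infected and 100% = uninfected wells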
* hit, by the source's call; ? = inconclusive; . = no result given.

SMILES	Mtb bLac sens	YopH inh	Arbovirus anti	Mtb growth	RecA splice inh	others
Cc1cc(C)cc(NC(=O)COC(=O)c2cc(C)oc2C)c1	5	.	14	11%	0.3
CC1=CC(=C(C#N)c2nc3ccccc3s2)C=C(C)N1c1ccc(F)cc1	0	65*	0	3%	-11
COc1ccc(CC(=O)NC2CCS(=O)(=O)C2)cc1 (stereo not drawn)	-10	.	.	.	1.1
CCCc1[nH]n(-c2ccc([N+](=O)[O-])cc2)c(=O)c1C=NCCCn1ccnc1	6	.	-1	-3%	0.9
CCc1ccccc1NC(=O)c1ccc2snnc2c1	1	.	.	.	-0.3
O=C(Nc1nccs1)C1CCCN(S(=O)(=O)c2cccnc2)C1 (stereo not drawn)	-9	-53	4	-7%	0.1
CCOC(=O)c1sc(NC(=O)CSc2nc(-c3ccco3)cc(C(F)(F)F)n2)c(C(=O)OC)c1C	-10	-12	8	9%	2.2
O=C(Nc1cnccn1)C1c2ccccc2Oc2ccccc21	-8	-7	-8	-3%	1.1
O=C(O)c1ccccc1-c1ccccc1C(=O)Nc1ccc2c(c1)[nH]c(=O)c1ccccc12	17	.	.	-4%	2.3
Cc1ccc(S(=O)(=O)NCC(=O)OCC(=O)Nc2cccc(S(=O)(=O)NC3=NCCCCC3)c2)cc1C	0	.	.	-4%	-0.8
Cc1c(/C=N/NC(=O)c2ccccc2O)c2ccccn2c1C(=O)c1ccc(F)cc1	8	-22	-28	17%	-23
C[n+]1c(-c2ccccc2)cc(-c2ccc(Cl)cc2)cc1-c1ccccc1	-1	.	12	3%	7.5
CC(Nc1ccc(Cl)cc1)c1cc(Cl)ccc1O (stereo not drawn)	-6	-5	-32	-9%	18
CCCNCc1cc(Br)ccc1OCC(=O)NCCc1ccccc1	-2	-9	-7	10%	-3.2
O=C(c1cc2c(=O)n3ccccc3nc2s1)N1CCN(Cc2ccc3c(c2)OCO3)CC1	-7	.	5	-10%	-10
CC(C)(C)c1ccc(C(=O)N2CCC(=O)N(C(CO)Cc3ccccc3)CC2)cc1 (stereo not drawn)	-5	-6	2	-4%	-2.0
CCc1ccc(NC(=O)CSc2ccc(-c3ccco3)nn2)cc1	88	.	0	?	-1.3
CCC1CCCCN1C(=O)COc1cccc2c1CCN(C)C2=O (stereo not drawn)	-8	.	2	1%	-1.0
Cc1c(OCC(=O)N(C)C)ccc2c(-c3ccccc3)cc(=O)oc12	-3	.	.	.	1.8
O=C1CCC(c2ccccc2)N1C(=O)c1cccnc1 (stereo not drawn)	-2	-20	10	-11%	-1.5
O=C(COC(=O)c1ccc(S(=O)(=O)NCc2ccco2)cc1)NCC1CCCCC1	12	2	-3	?	2.1
Clc1ccc(-c2nnc3cccc(Cl)n23)c(Cl)c1	-3	7	-1	.	-2.3
O=C(COc1cccc2cccnc12)N/N=C1\SCC(=O)N1CCc1ccccc1	7	.	3	-5%	-0.7
COc1ccc(NC(=O)c2c(Cl)cnn2C)c(C)c1	-7	.	-3	4%	-0.4
COc1ccc(-c2nnc(SCC(=O)Nc3cc(S(=O)(=O)N4CCCCC4)ccc3Cl)n2N)cc1	0	-31	20	5%	-4.3
COc1cc(C(=O)NCC(C)C)c([N+](=O)[O-])cc1OC	-2	-12	-3	3%	-1.2
CCCS(=O)(=O)N1CCC(C(=O)NCC2CCCO2)CC1 (stereo not drawn)	-9	-11	-3	-11%	.
O=C(CSc1nncn1-c1cccnc1)N1CCOCC1	-2	-28	2	0%	-0.2
c1ccc(C2C3=C(CCCC3)Nc3ncnn32)cc1 (stereo not drawn)	9	-37	9	-4%	-2.2
COc1cccc(CNS(=O)(=O)c2cc(-c3cc(C)no3)ccc2C(C)C)c1	2	.	.	.	7.2
COc1ccc2nc(Nc3nc(C)c(C(C)=O)s3)sc2c1	30	-41	-31	26%	-0.3
CN(CC1CCOCC1)C(=O)CC1C(=O)NCCN1CC(c1ccccc1)c1ccccc1 (stereo not drawn)	3	.	.	.	-2.6
COc1ccc(/C(C)=N/NC(=O)CNC(=O)COc2ccccc2)c(OC)c1	1	.	.	.	-2.0
CCN1C(=NCC(C)C)N[C@@H](c2cccc(C(F)(F)F)c2)C(C(=O)OC)=C1C	-5	.	.	.	1.1
O=C(O)CCCN1C(=O)/C(=C/c2ccc(-c3nc4ccccc4s3)o2)SC1=S	73	9	20	.	-19
CN(C(=S)Nc1ccc(SC(F)F)cc1)c1ccc(O)cc1	-1	18	-3	16%	-2.5
COc1ccc(C(=O)N(CC2CCCO2)C(C(=O)NC2CCCC2)c2ccc(C)cc2)cc1OC (stereo not drawn)	6	-31	9	-2%	-1.6
Cc1cccnc1NC(=O)CCc1nnc2ccc(NCc3ccco3)nn12	4	.	.	.	-0.2
CC(=O)N(c1ccccc1)c1c(F)c(F)c(F)c(F)c1F	0	-22	5	-5%	-1.7
Cc1ccc(-c2csc(N(CCCN(C)C)C(=O)c3ccco3)n2)cc1	4	.	-33	5%	3.2
O=C(COC(=O)c1ccc(F)cc1)Nc1ccccc1N1CCOCC1	8	-4	-1	-2%	1.8
COc1ccc(Cl)cc1-c1nc(SCC(=O)NCCN2C(=O)CSC2=O)n[nH]1	-1	-18	1	-14%	-0.5
COc1ccc(C(=O)Nc2cc(C)c(NC(=O)c3ccccn3)cn2)cc1	-5	.	.	.	2.3
COc1cc(NC(=O)c2cccc(C)c2)c(Cl)cc1[N+](=O)[O-]	-1	-33	3	2%	-1.1
CCc1ccc(NC(=O)CNC(=O)[C@@H]2Cc3ccccc3CN2)cc1	-5	.	.	.	-1.3
CC(=O)Nc1ccc(N(C(=O)c2ccccn2)C(C(=O)NC2CCCCC2)c2ccc(F)cc2)cc1 (stereo not drawn)	-5	.	.	.	1.7
COc1ccc(NC(=O)c2cn(CCC#N)nc2-c2ccc(OC)c(OC)c2)cc1	4	.	.	.	-0.3
CCOC(=O)CSC1=C(C#N)C(c2ccco2)C(C(=O)Nc2cccc(C(F)(F)F)c2)=C(C)N1 (stereo not drawn)	4	4	5	10%	3.8
COc1ccc(CC(=O)OCC(=O)NC(=O)NC23CC4CC(CC(C4)C2)C3)cc1	6	11	-1	1%	9.6
CCN(CC)c1ccc(Nc2nc(Cl)ncc2Br)cc1	8	.	.	.	2.1
CCOC(=O)Cc1nnc(NC(=O)COc2ccc(F)cc2)s1	0	-33	8	-7%	-1.0
CCn1c(-c2ccc([N+](=O)[O-])cc2)n[nH]c1=S	-1	-26	14	-14%	-1.3
CCOc1ccc(S(=O)(=O)N(C)CC(=O)NCc2ccco2)cc1	-4	.	.	.	-2.3
COC(=O)c1cc2sccc2n1CC(=O)Nc1cc(OC)cc(OC)c1	15	-3	-7	0%	-0.5
CCOC(=O)CCSc1nc(C)c2cc(C)c(C)cc2n1	96	-22	-9	5%	1.4
O=C(CCn1c(=S)[nH]c2cc3c(cc2c1=O)OCO3)NCc1ccccc1Cl	-1	.	.	.	-0.2
CCOC(=O)NCCc1c(C)nc2c(c(C)nn2C(C)(C)C)c1C	20	-25	-1	10%	0.3
Cc1c(C(=O)NC(c2ccccn2)C(F)(F)F)oc2c(F)cccc12 (stereo not drawn)	7	.	.	.	1.2
O=C(COC(=O)c1cccnc1Cl)Nc1ccc2c(c1)OCO2	-10	.	-1	-4%	-1.3
CC(C)Oc1cccc(C(=O)C2CCCN(S(=O)(=O)C(C)C)C2)c1 (stereo not drawn)	10	.	-1	-3%	-0.7

Three compounds picked at random from those above:
SMILES	Mtb bLac sens	YopH inh	Arbovirus anti	Mtb growth	RecA splice inh	others
CCOC(=O)NCCc1c(C)nc2c(c(C)nn2C(C)(C)C)c1C	20	-25	-1	10%	0.3
CCN(CC)c1ccc(Nc2nc(Cl)ncc2Br)cc1	8	.	.	.	2.1
CCn1c(-c2ccc([N+](=O)[O-])cc2)n[nH]c1=S	-1	-26	14	-14%	-1.3

Following part.
SMILES	Mtb bLac sens	YopH inh	Arbovirus anti	Mtb growth	RecA splice inh	others
COc1cc(CCC(=O)OCC(=O)Nc2ccc(Br)cc2F)cc(OC)c1OC	5	.	.	.	-0.5
COc1cccc2cc(C(=O)C3=C(O)C(=O)N(Cc4ccco4)C3c3cccnc3)oc12 (stereo not drawn)	17	-18	25	0%	1.5
O=C(c1cccc(Cl)c1)c1nn(-c2ccccc2)c(=O)cc1C(F)(F)F	-4	-86	-48	21%	.
Cn1nnc2cc(NC(=O)Nc3cccc(C(F)(F)F)c3)ccc21	-1	.	.	.	1.5
C[C@@H](NC(=O)[C@@H]1Cc2ccccc2CN1)C(=O)NC1CCCCC1	-8	.	.	.	1.7
Cc1ccc(C)n1-c1ccc(C(=O)NCc2ccncc2)cc1	4	.	-3	3%	3.0
O=C1CC(=O)N(c2cccc(Cl)c2)C(=O)N1	1	-44	9	2%	-2.3
COc1ccc(NC(=S)N2C3CCC2CC(NC(=O)NC24CC5CC(CC(C5)C2)C4)C3)c(OC)c1 (stereo not drawn)	86	-9	0	40%	0.5
Cc1ccc2ncccc2c1N	-2	.	-1	5%	-8.2
Cc1ccc(-n2c(-c3ccncc3)n[nH]c2=S)cc1C	-3	.	0	0%	-0.6
COc1cc(NC(=O)COC(=O)c2nc3nc(C)cc(C)n3n2)cc(OC)c1	2	-36	8	-7%	3.3
Cc1ccc(S(=O)(=O)C(C#N)c2nc3ccccc3nc2OCCO)cc1 (stereo not drawn)	6	.	17	4%	-14

By substructure: the entries above containing a thiophene ring, fused or not.
SMILES	Mtb bLac sens	YopH inh	Arbovirus anti	Mtb growth	RecA splice inh	others
CCOC(=O)c1sc(NC(=O)CSc2nc(-c3ccco3)cc(C(F)(F)F)n2)c(C(=O)OC)c1C	-10	-12	8	9%	2.2
O=C(c1cc2c(=O)n3ccccc3nc2s1)N1CCN(Cc2ccc3c(c2)OCO3)CC1	-7	.	5	-10%	-10
COC(=O)c1cc2sccc2n1CC(=O)Nc1cc(OC)cc(OC)c1	15	-3	-7	0%	-0.5

Structures above that contain bromine, in the order listed:
SMILES	Mtb bLac sens	YopH inh	Arbovirus anti	Mtb growth	RecA splice inh	others
CCCNCc1cc(Br)ccc1OCC(=O)NCCc1ccccc1	-2	-9	-7	10%	-3.2
CCN(CC)c1ccc(Nc2nc(Cl)ncc2Br)cc1	8	.	.	.	2.1
COc1cc(CCC(=O)OCC(=O)Nc2ccc(Br)cc2F)cc(OC)c1OC	5	.	.	.	-0.5

More structures follow:
SMILES	Mtb bLac sens	YopH inh	Arbovirus anti	Mtb growth	RecA splice inh	others
Cc1onc(-c2ccccc2)c1NC(=O)N(CCC(=O)O)Cc1ccccc1	-6	.	.	-8%	.
N/C(=N\N=C\c1cccs1)SC1CC(=O)N(c2cccc([N+](=O)[O-])c2)C1=O (stereo not drawn)	3	.	12	6%	-4.0
COc1ccccc1N1CCN(C2=CC(=O)CCC2)CC1	4	5	6	-11%	1.2	Arbovirus anti repeat=4
CN(C)S(=O)(=O)c1cccc(NC(=O)CN2C(=O)NC(CCc3ccccc3)C2=O)c1 (stereo not drawn)	6	.	5	-6%	-0.6
COc1ccc(NCCc2ccccn2)cc1	0	.	.	.	-2.0
CCOc1ccccc1NS(=O)(=O)c1ccc(OC)c(OC)c1	1	0	5	-10%	.
O=C(Nc1ccc(C(=O)N2CCCCC2)cc1)Nc1cccc(Cl)c1	-8	.	.	.	-0.3
Cc1ccc(C)n1CCN1CCN(C(=O)c2ccc(Cl)cc2)CC1	-7	.	.	-10%	0.5
CCN(CC)CCN(C(=O)c1ccc(N2C(=O)CCC2=O)cc1)c1nc2cc3c(cc2s1)OCO3	-3	.	-4	8%	-2.6
CC(=O)c1cccc(NS(=O)(=O)c2ccc(-c3cnc(C4CC4)o3)cc2)c1	-5	.	.	.	0.4
CCN(C(=O)CCN1C(=O)S/C(=C\c2ccccc2)C1=O)C1CCS(=O)(=O)C1 (stereo not drawn)	5	.	.	.	2.6
CCOCCCNC(=O)C1CCC(=O)N1CCc1ccccc1 (stereo not drawn)	-5	-12	1	1%	0.2
O=C(NCC1CCCO1)C(=O)NCC(c1ccco1)N1CCN(c2ccc(F)cc2)CC1 (stereo not drawn)	10	-42	1	0%	-1.9
Cc1cccc(NC(=O)Cn2ccn(-c3ccc4c(c3)OCCO4)c(=O)c2=O)c1	5	.	.	.	0.2
O=C(O)c1ccc(Nc2nc(-c3cc4ccccc4oc3=O)cs2)cc1O	.	.	1	20µM*	-10
Cc1cccc2c1-c1sc(C(=O)Nc3cccc([N+](=O)[O-])c3C)cc1CO2	-10	-26	-13	0%	-0.8
FC(F)(F)c1ccccc1NC(=S)N1CCCCCC1	-9	.	.	.	-1.9
CCNC(=O)c1ccc(-n2nc(C(F)(F)F)c3c2CCCC3)cc1	41	-36	-3	2%	-1.2
CCN(CC)c1ccc(C(=O)N/N=C(\C)c2ccc(OC)c(OC)c2)cc1	-1	-24	-12	-8%	-3.3

Screening results: PubChem, several laboratories

Only part of the results is shown, so the mix of outcomes need not match the whole.
